Screening results: PubChem, National Center for Advancing Translational Sciences (NCATS)
FEN1 inhibitor – qHTS Assay for the Inhibitors of Human Flap endonuclease 1 (FEN1). P39748. Recombinant FEN1 flap cleavage, fluorescence, 15 min. Potency, µM (titrated, usually from 114 µM), inactives show at the highest dose activity change, negative = inhibition, most hits filed as inhibitors. actives 0.35% (n = 390,000); also: nearly all actives have a fitted effect of over 65% in size
Target sequence (P39748 whole entry, looked up): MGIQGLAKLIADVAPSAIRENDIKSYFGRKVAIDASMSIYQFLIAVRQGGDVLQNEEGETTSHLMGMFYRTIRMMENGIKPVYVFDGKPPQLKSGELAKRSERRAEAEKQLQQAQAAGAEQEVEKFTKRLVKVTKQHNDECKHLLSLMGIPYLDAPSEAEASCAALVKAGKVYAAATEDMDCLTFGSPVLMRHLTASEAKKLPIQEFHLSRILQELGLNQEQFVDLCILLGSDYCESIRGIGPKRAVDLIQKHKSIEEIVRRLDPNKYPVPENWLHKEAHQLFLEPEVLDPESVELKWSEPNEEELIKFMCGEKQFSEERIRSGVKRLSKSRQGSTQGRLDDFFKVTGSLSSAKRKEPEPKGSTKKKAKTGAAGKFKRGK
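Enzyme 10 nM, 15 min RT preincubation with compound; start with substrate 50 nM final; reads at 0 and 15 min; qHTS titration, four-parameter Hill fit.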
N370S GC – qHTS Assay for Inhibitors and Activators of N370S glucocerebrosidase as a Potential Chaperone Treatment of Gaucher Disease; Lysosomal acid glucosylceramidase (Homo sapiens), P04062; N370S GC spleen homogenate, 4MU-glucoside fluorescence; Potency, µM (top dose mostly 59.4 µM), without a hit: top-dose activity change, negative = inhibition, hits mostly inhibitors; actives 0.092% (n = 330,000);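 also: 0% = full enzyme activity and -100% = no enzyme basal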
* marks the source's active call; other numbers are inactive results; ? = inconclusive; . = not tested or not shown; & = joins results of further samples; [ ] = another dose, or the depositor's remark. Calls follow the shape of the dose curve; as a rule, active = well fitted curve in the direction sought with a large enough effect; inconclusive = small, poorly fitted or top-dose-only effect, or another doubt; inactive = no such curve, though single readings can be large; an effect the other way counts as inactive or inconclusive. Unless noted, % is scaled to controls: 0 for no effect and ±100 for the full control effect; potency is read from the fitted curve at half-maximal effect. Not all compounds are listed; most or all hits stand in other tables.

Fields – N370S GC	FEN1 inhibitor
> COCCS(=O)(=O)N(Cc1ccccc1)[C@H](C(=O)OC)C(C)C
  .	7%
> COC(=O)c1sc2ccccc2c1C(=O)OC
  9%	8%
> CCN(CC)CCn1c(=S)[nH]c2cc(Cl)ccc2c1=O
  -7%	2%
> O=C(Nc1ccc(S(=O)(=O)Nc2cnc3ccccc3n2)cc1)c1ccc([N+](=O)[O-])cc1Cl
  -16%	-11%
> COC(=O)c1oc2c(c1C)C(=O)CC(C)(C)C2
  3%	2%
> Cc1ccc(C)c(N2CCN(C(=O)Cn3ncc4c(=O)oc5ccc(C)cc5c43)CC2)c1
  .	-4%
> C=CCN1C=CC=C/C1=C1\SC(=S)N(C)C1=O
  -5%	-2%
> Cc1ccccc1NC(=O)CCS(=O)(=O)c1ccc(Br)s1
  -19%	-5%
> COc1ccc(Nc2ccc(C(N)=O)cc2[N+](=O)[O-])cc1
  -2%	-16%
> Cc1c(NC(=O)C23CC4CC(CC(C4)C2)C3)c(=O)n(-c2ccccc2)n1C
  -6%	6%
> O=C(CCNC(=O)c1ccc([N+](=O)[O-])cc1)Nc1cccc(S(=O)(=O)N2CCOCC2)c1
  .	0%
> O=C(C[C@H]1C[C@H](C(=O)N2CCCCC2)[C@@]2(CCc3ccccc3)c3[nH]c4ccc(Cl)cc4c3CCN2C1=O)NCCCn1ccnc1
  .	2%
> NC1=NC(c2ccc(Cl)cc2)n2c(nc3ccccc32)N1 (configuration not stated)
  -4%	4%
> COc1ccc(-n2nnc3c(SCc4ccccc4)ncnc32)cc1
  3%	-17%
> COc1ccc(NS(=O)(=O)c2cc(NC(=O)c3ccccc3)ccc2N2CCOCC2)cc1
  .	0%
> O=C1/C(=C/c2ccccc2O)SC(=S)N1Cc1cccnc1
  -5%	13%
> CN1C(C(=O)NC(C)(C)C)=CC(c2ccc3c(c2)OCO3)=NS1(=O)=O
  .	-3%
> CCC(=O)Oc1ccc(C(=O)Nc2cccc(NC(=O)c3ccco3)c2)cc1
  -13%	-9%
> CCCCN(CCCC)CCNC(=O)c1cn(C)c2ccc(S(=O)(=O)N(C)C3CCCCC3)cc2c1=O
  -16%	4%
> O=C1C=C(NNC(=O)c2ccccc2Br)CCC1
  16%	0%
> Cc1ncc(CO)c2c1Oc1nc(-c3ccccc3)nc(SCC(=O)N3CCCCC3)c1C2
  -7%	?
> Cc1cccc(NC(=O)CSc2nnc(NC(=O)c3ccco3)s2)c1
  7%	5%
> COc1ccc(Nc2nc3ccccc3c(=O)s2)c(OC)c1
  3%[2.35 µM]	-2%
> CC(=O)Oc1ccc2ccccc2c1C(NC(=O)Cc1ccccc1)c1ccccc1 (configuration not stated)
  7%	-14%
> COc1ccc(OC)c(NC(=O)C2CCN(c3cc(-c4ccccc4)nc4ncnn34)CC2)c1
  1%	-16%
> CCC(=O)Oc1ccc2c(C)cc(=O)oc2c1C(=O)c1ccccc1
  -3%	6%
> Nc1nc(Cl)c(N)c(NCC2(CO)CC(CCc3ccccc3)C2)n1 (configuration not stated)
  .	14%
> O=CC(=O)c1ccccc1
  -5%	2%
> O=C(CN1CCCCC1)Nc1nnc(-c2ccc([N+](=O)[O-])cc2)s1
  15%	2%
> NC[C@@H]1O[C@H](O[C@H]2[C@H](O)[C@@H](O[C@H]3[C@H](O)[C@H](N)C[C@H](N)[C@H]3O[C@@H]3O[C@H](CO)[C@@H](O)[C@H](O)[C@@H]3N)O[C@H]2CO)[C@@H](N)[C@H](O)[C@@H]1O
  6%[21.6 µM]	.
> COc1cc(CN2CCN(S(=O)(=O)c3ccccc3)CC2)cc(OC)c1OC
  -6%	-13%
> CCCCNC(=O)c1c(CSc2ccc(Cl)cc2)noc1C(=O)NCCC
  2%	1%
> COC(=O)[C@]1(C)N[C@H](CN(C)C(=O)NC(C)C)[C@@H]2C(=O)N(C)C(=O)[C@@H]21
  .	-4%
> CCc1cccc(C)c1NC(=O)c1cc(-c2ccncc2)nc2ccccc12
  -4%	-2%
> Cc1nc(Cl)c(C(=O)NCc2ccccc2)c(C)c1Cl
  0%	-2%
> COc1ccc(OCc2cc(C(=O)N3C[C@@H](C)O[C@@H](C)C3)no2)c(Cl)c1
  -12%	0%
> CCn1cc([N+](=O)[O-])c(C(=O)Nc2ccn(Cc3ccccc3F)n2)n1
  -4%	-4%
> CC1CCN(CCCn2c(SCC(=O)Nc3ccccc3Cl)nc3ccccc3c2=O)CC1
  -3%	-6%
> O=C(Cn1c(=O)n(-c2ccccc2)c(=O)c2oc3ccccc3c21)Nc1ccccc1
  2%	6%
> CCCSc1n[nH]c(NC(C)=O)n1
  2%	1%
> Cc1ccc(-c2cc([C@H]3[C@@H]4C=CCC[C@@]4(C)C(=O)N3Cc3ccccc3)ccc2F)cc1
  15%	-22%
> CC1(C)OC(=O)N2CCc3ccccc3C21C (configuration not stated)
  6%	5%
> O=S(=O)(Nc1ccc(Br)cn1)c1cccs1
  7%	12%
> N#Cc1cc2ccccc2nc1N
  29%	2%
> O=C(CN1CCC(NC(=O)Nc2ccccc2-c2ccccc2)CC1)NCc1ccco1
  4%	-10%
> COc1cc(O)c(C(CC(=O)N2CCCC2)c2ccc(N(C)C)cc2)c(OC)c1 (configuration not stated)
  -5%&1%	5%&14%
> COc1ccc(CNC(=O)C(Cc2ccccc2)n2cccc2)cc1 (configuration not stated)
  5%	-16%
> COc1ccc(OC)c(NC(=O)NNS(=O)(=O)c2ccc(C)cc2C)c1
  0%	1%
> O=C(Cc1ccc(Br)c2ccccc12)N/N=C/c1ccccn1
  22%	0%
> COc1cccc(C2(O)CCN(CC(=O)NCC3CC3)CC2)c1
  12%	7%
> COc1cc2[nH]c(=O)n(Cc3ccc(C(=O)NCC4CCCO4)cc3)c(=O)c2cc1OC (configuration not stated)
  -8%	1%
> O=C(Nc1ccccc1Cl)c1ccc2c(=O)n3c(nc2c1)CCC3
  .	20%
> Cc1ccc(-c2ccc(/C=N/NC(=S)Nc3ccccc3)o2)cc1[N+](=O)[O-]
  9%	1%
> C=CCN1C(=O)S/C(=C\c2ccc(N3CCOCC3)cc2C)C1=O
  -1%	-11%
> CC(=O)c1ccc(NC(=O)Cn2c(=O)c3cccn3c3ccccc32)cc1
  .	-9%
> O=C(Nc1ccn(Cc2c(F)c(F)c(F)c(F)c2F)n1)c1cccc(Cn2cc([N+](=O)[O-])cn2)c1
  3%	-6%
> COC(=O)c1[nH]c2c(c1C)C(=O)CC(c1ccc(C)cc1)C2 (configuration not stated)
  5%	-1%
> Cc1ccc(C)c(-n2cc(CN3CCNC(=O)CC3)c(-c3ccccc3)n2)c1
  -8%	-19%
> CCCCNS(=O)(=O)c1ccc2nc(SCC(=O)Nc3cccc(F)c3)[nH]c2c1
  1%	-23%
> CCc1cc2cccc(C)c2nc1SCC(=O)c1ccc(NC(C)=O)cc1
  8%	-11%

Continuation:
Fields – N370S GC	FEN1 inhibitor
> Cc1ccsc1CN1CC(=O)N(c2c(C)cccc2C)C1=S
  -10%	0%
> Cc1nnc(NC(=O)c2ccc(C)c(S(=O)(=O)N3CCOCC3)c2)s1
  7%	-5%
> CCOc1ccc2nc(COC(=O)c3ccco3)c(C(C)=O)[n+]([O-])c2c1
  10%	-9%
> O=C(O)CNC(=S)N(Cc1cccs1)C1CCCCC1
  -5%	-2%
> Cc1cc(NC(=O)CCl)n(-c2nc3ccccc3s2)n1
  0%	-1%
> Cc1nc(Nc2ccccc2)sc1C(=O)c1ccccc1
  10%	-30%
> COc1c(O)ccc(C2NC(=O)NC(C)=C2C(=O)Nc2ccccc2C)c1[N+](=O)[O-] (configuration not stated)
  -11%	6%
> COC(=O)/C=C/c1ccccc1S(=O)(=O)N(Cc1ccccc1)Cc1ccco1
  22%&27%	-3%&-22%
> CCc1ccc(NC(=S)NC2CC3CCCC(C2)N3Cc2ccccc2)cc1 (configuration not stated)
  3%	-27%
> N#Cc1c[nH]n2c(NC3CCCCC3)c(-c3ccc(F)cc3)nc12
  .	-4%
> Cc1c(C(=O)N2CCC(C)CC2)c(S(=O)(=O)Nc2cccc(C#N)c2)c(C)n1C
  .	-1%
> COc1ccc(/C=C/C(=O)c2ccc3c4c(cccc24)CC3)cc1
  8%	14%
> COc1ccc(C2C(C(=O)c3ccc(C)o3)=C(O)C(=O)N2Cc2cccnc2)cc1OC (configuration not stated)
  -21%	4%
> Fc1ccc(CSc2nnc(-c3ccco3)o2)cc1
  20%	3%
> CCOc1ccc(CCNS(=O)(=O)c2ccc3c(c2)N(C(C)=O)CCO3)cc1OCC
  -2%	-4%
> COc1ccc(OC)c(N2C(=O)c3cccnc3C2=O)c1
  2%	20%
> Cc1oc(-c2ccccc2F)nc1CS(=O)(=O)CC(=O)NC1CCCC1
  9%	-12%
> Cc1cc(C)nc(NC2=NCC(=O)N2c2ccccc2Br)n1
  13%	18%
> CCN(CC)S(=O)(=O)c1ccc(NC(=O)c2cc3ccc4cccnc4c3[nH]2)cc1
  .	13%
> COc1ccc(NS(=O)(=O)c2cc(NC(=O)c3ccc(=O)[nH]c3)ccc2C)cc1
  .	-1%
> COc1cccc2[nH]c3c(N4CCCCC4)ncnc3c12
  13%	1%
> Cc1nnc(NC(=O)C2c3ccccc3Oc3ccccc32)s1
  -1%	-1%
> COCC(=O)N1CCC(Oc2ccc(C(=O)N(C)C(C)c3ccon3)cc2)CC1 (configuration not stated)
  -16%	-2%
> Cc1cnc(C(=O)OCC(=O)c2ccccc2)cn1
  2%	-8%
> COc1ccc2nc(NC(=O)CCc3nc(-c4ccccc4F)no3)sc2c1
  -22%	-5%
> CN(C(=O)COC(=O)C12CC3CC(CC(Cl)(C3)C1)C2)c1ccccc1
  .	3%
> COc1ccc2c(c1)c1c(c(=O)n(CCc3ccccc3)c(=O)n1Cc1cccc(Cl)c1)n2C
  .	-2%
> Cc1cccc(Nc2ccccc2C(=O)O)c1C
  14%	20%
> O=C(NC1CC1)c1cc(Cl)nc2ccccc12
  3%	-7%
> CC1(C)CC(NC(=O)c2sc3cc(Cl)ccc3c2Cl)CC(C)(C)N1
  6%	-10%
> CCn1c(SCC(=O)Nc2cc(Cl)ccc2OC)nc2c([nH]c3ccccc32)c1=O
  .	-10%
> COc1cc(/C=C(/C#N)c2ccccc2)ccc1Oc1ccc([N+](=O)[O-])cn1
  2%	-1%
> O=C(COc1ccc(Br)cc1)Nc1ccncc1
  -1%	-2%
> C=CCOC(=O)C1=C[C@@H](c2cn(C(C)=O)c3ccccc23)C[C@@H](OCCCCO)O1
  -3%	-21%
> N#CCCn1cc(C(N)=O)c(-c2cccs2)n1
  7%	-13%
> COC(=O)c1sccc1-n1cc(C#N)c(=O)n(C)c1=O
  0%	0%
> O=C(Cn1ncc2c3ccccc3n(Cc3ccccc3)c2c1=O)NCCCN1CCOCC1
  -18%	-2%
> CCN(CC(=O)Nc1ccccc1OC)C(=O)Cn1cnc2ccccc2c1=O
  15%	-8%
> O=C1Nc2ccc([N+](=O)[O-])cc2C1(O)N1CCCCC1 (configuration not stated)
  -7%	-1%
> COc1ccc(C(=O)N/C(=C\c2ccccc2)C(=O)NCc2cccnc2)cc1
  -2%	3%
> CCOC(=O)N1CCC(N2Cc3cccc(C(=O)Nc4cccc(F)c4)c3C2=O)CC1
  5%	-2%
> C[C@@H]1C[C@H](OC(=O)c2ccccc2O)CC(C)(C)C1
  4%[21.6 µM]	.
> Cn1c(=O)[nH]c(=O)c2c1nc(SCCN1CCCCC1)n2Cc1ccccc1
  -10%	3%
> CCOc1ccc(NC(=O)CCNS(=O)(=O)c2ccc(Br)s2)cc1
  -4%	1%
> O=C1COc2ccc(C(=O)CSc3nnnn3-c3ccccc3)cc2N1
  -7%	1%
> COCC(=O)n1nc(-c2ccccc2)nc1NCc1ccccc1
  2%	-5%
> O=C(CN1C(=O)NC2(CCCC2)C1=O)OCCOc1ccccc1Cl
  -8%	7%
> O=C(O)COc1ccc(C(=O)Cc2ccc3c(c2)OCCCO3)c(O)c1
  4%	3%
> Cc1sc2ncnc(NCc3cccs3)c2c1C
  9%	3%
> Cc1nc2sc(C(c3cccc(F)c3)N3CCOCC3)c(O)n2n1 (configuration not stated)
  1%	13%
> CCCCc1cc(=O)oc2cc(OC(C)C(=O)NCCN3CCOCC3)c(Cl)cc12 (configuration not stated)
  20µM*	19%
> COc1ccc2c(c1)c(CC(=O)Nc1c(C)cccc1C)c(C)n2C(=O)c1ccc(Cl)cc1
  .	18%
> CSc1nc2c(cnn2-c2ccccc2)c(=O)n1N
  1%	-5%
> CN(C)S(=O)(=O)c1cccc(COC(=O)Cc2c(F)cccc2Cl)c1
  -5%	-14%
> Cc1ccc(C(=O)c2oc3ccccc3c2NC(=O)c2cc(=O)c3ccccc3o2)cc1
  .	20%
> CCOC(=O)C(O)(CCC(O)(C(=O)OCC)C(=O)OCC)C(=O)OCC
  -11%	-1%
> COc1ccc(NC(=S)N(Cc2ccc(C)cc2)Cc2ccccn2)cc1
  -2%	0%
> CC(C)(C)N(Cc1ccccc1)C(=O)COC(=O)CCc1c[nH]c2ccccc12
  7%	-6%
